Screening data: PubChem, National Center for Advancing Translational Sciences (NCATS)
StopGo RLuc: Primary qHTS Assay for Foot and Mouth Disease Virus Antivirals against NCGC Sytravon and CBC Compound Libraries: Renilla Luciferase Signal. HEK cells with a luciferase reporter of 2A StopGo recoding. Potency, µM (highest dose often 57.5 µM), for the others: at the top dose signal change, negative = less light. actives 0.32% (n = 120,000); active means well fitted falling curve with a large enough effect; inconclusive means small, poorly fitted or top-dose-only effect; inactive means no such curve, though single readings can be large or run the other way; further: nearly all actives have a fitted effect of over 55% in size; overnight with compound
StopGo FLuc: Primary qHTS Assay for Foot and Mouth Disease Virus Antivirals against NCGC Sytravon and CBC Compound Libraries: Firefly Luciferase Signal | HEK cells with a luciferase reporter of 2A StopGo recoding | Potency, µM (series often up to 57.5 µM), without a hit: top-dose signal change, negative = less light | actives 0.23% (n = 120,000) | AID 1745856, 2022; active = well fitted falling curve with a large enough effect; inconclusive = small, poorly fitted or top-dose-only effect; inactive = no such curve, though single readings can be large or run the other way; further: nearly all actives have a fitted effect of over 60% in size; overnight with compound
Starred values were filed as active, the others as inactive; ? = inconclusive; & = joins results of further samples; [ ] = dose if it differs, or a comment. On the % scale 0 is the no-effect control and ±100 the full control effect; potency means the concentration at half of the fitted maximal effect.

SMILES	StopGo RLuc	StopGo FLuc
COc1ccc(S(=O)(=O)N2CCCCCC2)cc1NC(=O)Cc1nn(C)c(=O)c2ccccc12	2%	?
O=C(c1cccc(C(F)(F)F)c1)N1CCCC1c1ccco1 (stereo not given)	3%	-2%
COc1ccc(CNC(=O)CC2N=C3c4ccccc4N=C(SCC(=O)Nc4ccc(C(C)C)cc4)N3C2=O)cc1 (stereo not given)	-13%	-23%
COc1ccc(S(=O)(=O)N2CCN(c3cc(N4CCCCC4)nc(C)n3)CC2)c(C)c1C	22%	-13%
CCc1nc2cccnc2n1-c1ccc(CC(=O)Nc2c(C)cccc2C)cc1	-5%	-22%
O=C(Cc1ccc(F)cc1)NC1CC(=O)N(c2ccccc2)C1 (stereo not given)	1%	-14%
Cc1cccc(-n2c3c(c(=O)[nH]c2=O)CN(Cc2ccco2)CN3)c1	-10%	-14%
Cc1ccc(C2CC(=O)Nc3cc4c(cc32)OCCO4)cc1Br (stereo not given)	7%	2%
Cc1ccc(CCNC(=O)C2CCN(c3nnc(-n4cccc4CNc4ccc(C)cc4)s3)CC2)cc1	27%	-8%
Cc1[nH]c2ccccc2c1C(c1ccc(Cl)c(Cl)c1)c1c(C)[nH]c2ccccc12	?	-24%
Cc1cc(=O)oc2cc(OC(C)C(=O)N3CCOCC3)c(Cl)cc12 (stereo not given)	-7%	0%
CSc1ccc(CN(C)C(=O)c2ccc3c(c2)CCCC3)cc1	4%	9%
CCOC(=O)c1c(NC(=O)c2cc(C(C)C)on2)sc(C)c1C	1%	2%
CCC(NC(=O)c1cccc(OC)c1)c1ccccc1OC(F)F (stereo not given)	-1%	-2%
O=C(O)/C=C/c1cc(Cl)ccc1OCc1ccc(Cl)cc1	17%	0%

Another view of four compounds above:
| smiles | StopGo RLuc | StopGo FLuc |
| --- | --- | --- |
| Cc1ccc(C2CC(=O)Nc3cc4c(cc32)OCCO4)cc1Br (stereo not given) | 7% | 2% |
| Cc1cc(=O)oc2cc(OC(C)C(=O)N3CCOCC3)c(Cl)cc12 (stereo not given) | -7% | 0% |
| COc1ccc(S(=O)(=O)N2CCCCCC2)cc1NC(=O)Cc1nn(C)c(=O)c2ccccc12 | 2% | ? |
| Cc1cccc(-n2c3c(c(=O)[nH]c2=O)CN(Cc2ccco2)CN3)c1 | -10% | -14% |

Some of these compounds in order of molar mass, high to low:
SMILES	StopGo RLuc	StopGo FLuc
Cc1ccc(CCNC(=O)C2CCN(c3nnc(-n4cccc4CNc4ccc(C)cc4)s3)CC2)cc1	27%	-8%
CCc1nc2cccnc2n1-c1ccc(CC(=O)Nc2c(C)cccc2C)cc1	-5%	-22%
Cc1ccc(C2CC(=O)Nc3cc4c(cc32)OCCO4)cc1Br (stereo not given)	7%	2%
Cc1cc(=O)oc2cc(OC(C)C(=O)N3CCOCC3)c(Cl)cc12 (stereo not given)	-7%	0%
O=C(O)/C=C/c1cc(Cl)ccc1OCc1ccc(Cl)cc1	17%	0%

(continued)
SMILES	StopGo RLuc	StopGo FLuc
CC(=O)NCCNC(=O)CCc1ncc(-c2ccccc2Cl)o1	2%	29%
O=C(Nc1ccc(F)c(Cl)c1)Nc1c[nH]c(=O)[nH]c1=O	-2%	-3%
Cc1cccc(SCc2nc3c(c(=O)[nH]c(=O)n3C)n2C)c1	24%	34%[activator]
CCCCCCCNC(=O)CCC(=O)NCCOC	8%	-5%
Cc1ccc(C)c(Oc2c(C(F)(F)F)oc3c(CN4CCN(C)CC4)c(O)ccc3c2=O)c1	-7%	-20%
CCOc1ccc(C(=O)Nc2ccccn2)c(OCC)c1	5%	0%
COc1ccc(-c2cc(=O)c3cc(OCC(=O)OC(C)C)ccc3o2)cc1	-5%	34%[activator]
CCOC(=O)c1c(NC(=O)c2nc3nc(C)cc(C(F)F)n3n2)sc2c1CCCC2	6%	1%
CCN1CCN(CCNC(=O)c2cc3n(n2)CC(C)(C(=O)NCCC(C)C)N(C)C3=O)CC1 (stereo not given)	1%	9%
Cc1ccc(CN(C(=O)COc2ccccc2Cl)c2ccccn2)o1	49%&49%[activator]	59%&185%[activator]
O=C(CCCN1CCN(c2ccc(F)cc2)CC1)NC1c2ccccc2CSc2ccccc21 (stereo not given)	-10%	-16%
COc1ccc(-c2nc3ccccc3s2)cc1NC(=O)COc1ccc(C)cc1	-13%	172%[activator]
Cc1ccc(C)c(N2CCN(CCCNC(=O)Cn3ncc4c([nH]c5ccccc54)c3=O)CC2)c1	-13%	-15%
O=C(CCn1cnc2ccccc2c1=O)NCc1ccccc1Cl	7%	-15%
Cc1ccc(/C=N/NC(=O)c2cccs2)cc1	20%	151%[activator]
COc1cc2nc(NC(=O)c3ccc(Cl)cc3)[nH]c(=O)c2cc1OC	4%	14%
Cc1cc(S(=O)(=O)c2cc3cc(F)cc(F)c3oc2=O)ccc1F	37%[activator]	-19%
NC(=O)CS(=O)C(c1ccccc1)c1ccccc1 (stereo not given)	-12%	-9%[11.5 µM]
O=C(O)CCC(=O)N1CCC(O)CC1	1%	-2%
O=C(NCc1nnc(SCC(=O)N2CCOCC2)o1)c1ccccc1F	-8%	2%
Cn1c(=O)n(C)c2cc(CNCCc3ccc(F)cc3)ccc21	15%	16%
Cc1ccc(Nc2nccc(N(C)c3ccc4c(C)n(C)nc4c3)n2)cc1S(N)(=O)=O	26%	5%[11.5 µM]
COc1ccc(OC)c(CNC(=O)c2ccc(C)c(NC(=O)c3nsc4ccccc34)c2)c1	-8%	2%
Cc1cccc(-n2ncc(C(=O)N3CCN(Cc4ccccc4)CC3)c2C2CCN(C(=O)OC(C)(C)C)CC2)c1	-19%	?
Cc1c(NC(=O)CN(c2cc(Cl)ccc2Cl)S(C)(=O)=O)c(=O)n(-c2ccccc2)n1C	-3%	2%
CCCCCCCCCCCCCCCC[N+](C)(C)C	-16%	-27%
COc1cc(NC(=O)c2ccc3c(Cl)c4c(nc3c2)CCC4)cc(OC)c1OC	-2%	146%[activator]
COC(=O)C1=C(C)NC(C)=C(C(=O)OCC(C)C)C1c1ccccc1[N+](=O)[O-] (stereo not given)	-25%	-10%[11.5 µM]
Cc1ccc(-c2ccc(CCC(=O)O)n2-c2cccc(O)c2)cc1	-8%	-10%
CCOc1ccc(NC(=O)CSc2nc3c(c(=O)[nH]2)CCCC3)cc1	-23%	-12%
CCCCn1c(NCCC)nc2c1c(=O)[nH]c(=O)n2C	0%	-2%
CCOC(=O)CSc1nc2sc3c(c2c(=O)n1Cc1ccccc1)CC(C)CC3 (stereo not given)	-5%	19%
CCN(C(=O)Cn1nnc2sc(-c3ccccc3)cc2c1=O)c1cccc(C)c1	4%	-6%
O=C(COc1ccccc1)NCCc1csc(-c2cccc(F)c2)n1	1%	0%
CC(Sc1ccc2c(c1)OCCCO2)C(=O)Nc1ccc2ccccc2c1 (stereo not given)	?	-26%
O=C(Nc1cccc(F)c1)Nc1ccc2sc(NS(=O)(=O)c3ccccc3)nc2c1	20%	18%
COc1ccc(N2C(=O)C(C)CS2(=O)=O)cc1S(=O)(=O)N1CCCc2ccccc21 (stereo not given)	31%	5%
Cc1cc(C2=NNC(=NC(C)(C)C)SC2)c(C)n1C1CC1	-16%	105%[activator]
N#Cc1nc(/C=C/c2cccs2)oc1N1CCC(C(N)=O)CC1	7%	173%[activator]
O=C(OCc1cccc2cccnc12)c1cc2ccccc2[nH]1	-2%	100%[activator]
O=C(NCc1ccccc1)c1nc(S(=O)(=O)Cc2ccc(F)cc2)ncc1Cl	?	?
O=C(NCCCNC(=O)c1nc2ccccc2c(=O)[nH]1)c1cccnc1	5%	0%
CCN(CC)c1ccc(/C=N/N(c2ccccc2)c2ccccc2)cc1	11%	6%
O=C(OCCOC(=O)c1cccs1)c1cccs1	0%	73%[activator]
COCCN1CCC(O)C2CCCCC21 (stereo not given)	3%	-1%
O=C(Nc1ccc(F)cc1)C(Oc1ccc(S(=O)(=O)N2CCOCC2)cc1)c1ccccc1 (stereo not given)	125%[activator]	4%
C=C(C)C1CC=C(C)C(COc2ccc3ccc(=O)oc3c2)C1(C)CCC(=O)OC (stereo not given)	5%	-5%
CCOc1ccc2nc(NC(=O)c3nc(SC(C)C)ncc3Cl)sc2c1	-6%&8%	36%&26%[activator]
Cc1cc(C(=O)OCC(=O)Nc2ccc(C)c(F)c2)c2ccccc2n1	-3%	3%
COc1cccc(OC)c1C(=O)Nc1ccc(S(=O)(=O)Nc2nccc(C)n2)cc1	11%	1%
C=CCOc1ccc(CNCc2ccco2)cc1	-3%	34%[activator]
COc1cccc(C(=O)Nc2ccccc2OCc2cc(=O)n3cc(C)ccc3n2)c1	23%	-25%
O=C(OCc1ccc(Br)cc1)c1ccc(O)cc1	17%	?
COc1ccc(OC)c(CCNc2ncnc3onc(-c4ccc(F)cc4)c23)c1	22%	-1%
Cc1ccccc1C(=O)n1nc(-c2ccco2)nc1NCc1cccs1	14%	61%[activator]
CCOc1ccc(CN(C)Cc2cc(=O)oc3cc(C)ccc23)cc1	13%	21%
CC1CCN(C(=O)c2nn(C(C)C)c(=O)c3ccccc23)c2cc(Cl)ccc2S1 (stereo not given)	?	?
COc1ccc(OC)c(/C=C(\C#N)c2nc3ccccc3[nH]2)c1	-14%	61%[activator]
COc1cc(OC)c(NC(=O)CCn2cccn2)cc1Cl	-11%	-14%
CC1=C2NC(N)=[N+](CC3CC3)C(Cc3ccccc3)[C@@H]2n2c(=O)n(-c3ccccc3)c(=O)n2C1 (stereo not given in full)	-10%	-14%
Next results:
SMILES	StopGo RLuc	StopGo FLuc
Cc1cccc(NC(=O)c2ccc(N(C)C)cc2)c1C	19%	189%[activator]
CCOC(=O)c1c(NC(=O)c2cc(-c3cccc(Cl)c3)on2)sc(C(C)=O)c1C	-9%	-11%
CCOC(=O)c1c(C)oc2nc(C)nc(NCCCN3CCN(c4ccccc4)CC3)c12	-10%	1%
FC(F)(F)c1cccc(CSc2ncnc3ccccc23)c1	-23%	0%
CCc1cccc(C)c1NS(=O)(=O)c1ccc(-c2coc(C)n2)cc1	23%	3%
O=C(CCc1c[nH]c2ccccc12)Nc1cccc(C(F)(F)F)c1	1%	10%
COc1ccc(N2C(=O)CSC23C(=O)N(Cc2cccc(C(F)(F)F)c2)c2ccccc23)cc1 (stereo not given)	-7%	-14%
Cc1ccc(-c2cnc(CCC(=O)N(C)C(C)c3ccc(S(C)(=O)=O)cc3)o2)cc1C (stereo not given)	-27%	-6%
CC(C)CCNC(=O)C1CCC(CNS(=O)(=O)c2cccc3nsnc23)CC1 (stereo not given)	3%	-16%
O=C(CSc1nc2c(c(=O)[nH]1)CCC2)Nc1oncc1-c1ccccc1	-4%	4%
COc1ccc(C(=O)CN2C(=O)N(c3ccc(C(C)=O)cc3)S(=O)(=O)c3ccccc32)cc1	13%	-4%
O=C(Cn1c(-c2cccs2)cc2cc(F)ccc21)NCCCN1CCN(c2ccccc2F)CC1	-15%	-12%
CCC(NC(=O)OC)C12CC3CC(CC(C3)C1)C2 (stereo not given)	-2%	11%
COc1cc(C)cc2oc(=O)c(CC(=O)Nc3ccc(Cn4cncn4)cc3)c(C)c12	7%	1%
COc1ccc(-n2nc(C(=O)N3CCN(c4ccccc4OC)CC3)c3c4ccccc4n(C)c3c2=O)cc1	1%	1%
CCCCCCCCCOc1ccc(C(=O)O)cc1	2%	34%
CCN(CC)c1ccc(NS(=O)(=O)c2ccc(C)c(C)c2)cc1	1%[1.06 µM]	-27%
Cc1ccccc1C(=O)NCCSc1c[nH]c2ccccc12	8%	-5%
COC(=O)c1cc(Br)ccc1O	?	?
CCNc1nc(SC(C)C(N)=O)nc2ccccc12 (stereo not given)	0%	5%
CCc1ccccc1Nc1nc(N)nc(CSc2nnc(C3CC3)n2C)n1	40%	44%
Cc1ccc(-c2cc(C(=O)OCC(=O)NCCc3ccccc3)c3ccccc3n2)o1	-4%	68%[activator]
O=C(COc1ccccc1)Nc1nnc(S(=O)(=O)N2CCCCCC2)s1	-3%	-3%
Cc1ccc(OCCSc2nc3ccccc3o2)cc1	7%	115%[activator]
CCc1ccc(NC(=O)c2ccc(F)c(S(=O)(=O)NC3CCCCCC3)c2)cc1	33%[activator]	?
Fc1ccc(C(NCCc2ccc(Cl)cc2)c2nnc(-c3ccccc3)o2)c(Cl)c1 (stereo not given)	82%[activator]	5%
COc1ccc(NC(=O)CCCCCNC(C)=O)c2cccnc12	-9%	-5%
Cc1ccc(NC(=O)c2c(C)oc3ccc(O)c(CN4CCN(Cc5ccccc5)CC4)c23)cc1	-16%	-26%
CC(C)Cn1c(=O)c2ccccc2n2c(CCC(=O)NCc3ccc(Cl)cc3)nnc12	-14%	9%
CCc1ccc(-n2c(=O)c3c(C)c(C(=O)N(C)C)sc3n(Cc3cccc(C)c3)c2=O)cc1	-14%	-19%
CCc1c(C)sc2c1CCN(Cc1ccc(C#N)cc1)C2c1ccccc1 (stereo not given)	28%	5%
CCC(Oc1ccccc1)C(=O)Nc1ccc(OCc2cc(=O)n3ccc(C)cc3n2)cc1 (stereo not given)	10%	-22%
CCN(CC)c1ccc(NC(=O)CN2CCN(S(=O)(=O)c3ccc(C(C)C)cc3)CC2)cc1	-8%	-20%
CC(=O)Nc1ccc(Sc2ccnc3cc(Cl)ccc23)cc1	1%	0%
CCOc1ccc(CN(CC)Cc2cc(=O)oc3ccc(OC)cc23)cc1	25µM*	?
COc1ccc(C(=O)N/C(=C\c2cn(S(=O)(=O)N(C)C)c3ccccc23)C(=O)NCCCn2ccnc2)cc1	227%[activator]	-11%
Cc1ccc(-n2nc3c(N4CCC(C(=O)N5CCCCC5)CC4)nnc(C)c3c2C)cc1	25%	-11%

A portion of the library; rates above refer to the full screens.
